Source: PubChem (several laboratories)
YopH inh: YopH tyrosine phosphatase inhibitors, primary screen, biochemical, fluorescence Ex485/Em525. YopH tyrosine phosphatase [Yersinia enterocolitica]. inhibition, %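 (about 10 µM by stock and volumes)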. 0.16% of 140,000 active;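 active means inhibition of 50% or more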;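 further: controls were vehicle for no effect and minimum signal wells for full effect; inactives centre near -20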
Mtb H37Rv: M. tuberculosis H37Rv growth inhibitors, H37Rv strain (AID 1626) | inhibition, % at 10 µM; hits with a dose series show IC50 in µM | 0.95% of 220,000 active | M. tuberculosis H37Rv growth inhibition; higher % means a stronger effect;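 active means confirmed in a dose series; inconclusive means inhibition above 80% but not taken into the dose series; inactive means below 80% or under 30% at every dose of the series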;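 further: bacteria incubated seven days before Alamar blue readout; 0% = bacteria only wells and 100% = bacteria with antibiotic wells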
Arbovirus inh: antivirals against arbovirus infection, primary screen, cell-based, full library, 10K replicate subset; 0.37% of 200,000 active; arbovirus infection cell-based antiviral screen; inhibition, % at 10 µM;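 active means inhibition from about 30%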;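 further: bluetongue infection of BSR cells; cell survival read as ATP light after 72 h; 0% = infected wells without compound and 100% = uninfected wells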
Mtb betalactam: beta-lactam sensitization of Mtb H37Rv, H37Rv; M. tuberculosis H37Rv growth with meropenem, percent inhibition; hits of this screen are not shown here; inhibition, % at 25 µM; 0.27% of 330,000 active; AID 434955, 2010;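 active means about 74% or more and at least 40 points above the plate without the antibiotic, then above 30% in a dose series; inconclusive means first-round hits that could not be retested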;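 further: growth measured after seven days incubation then overnight dye step; 0% = bacteria only wells and 100% = bacteria with antibiotic; twin plates without the antibiotic show which effects depend on it; some results filed as inactive read as strong as hits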
RecA splice inh: Mtb RecA intein splicing inhibitors, primary screen, biochemical, fluorescence, HTS | Protein RecA (Mycobacterium tuberculosis (strain ATCC 25618 / H37Rv)), P9WHJ3 | cell-free RecA intein splicing | inhibition, %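 (about 9 µM by stock and volumes)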 | 0.75% of 290,000 active; in the data active means inhibition above about 30%; inconclusive means no clear call, values can overlap the other calls;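 further: 0% = vehicle wells and 100% = reference inhibitor control wells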
Target sequence (P9WHJ3 whole entry, looked up, canonical isoform): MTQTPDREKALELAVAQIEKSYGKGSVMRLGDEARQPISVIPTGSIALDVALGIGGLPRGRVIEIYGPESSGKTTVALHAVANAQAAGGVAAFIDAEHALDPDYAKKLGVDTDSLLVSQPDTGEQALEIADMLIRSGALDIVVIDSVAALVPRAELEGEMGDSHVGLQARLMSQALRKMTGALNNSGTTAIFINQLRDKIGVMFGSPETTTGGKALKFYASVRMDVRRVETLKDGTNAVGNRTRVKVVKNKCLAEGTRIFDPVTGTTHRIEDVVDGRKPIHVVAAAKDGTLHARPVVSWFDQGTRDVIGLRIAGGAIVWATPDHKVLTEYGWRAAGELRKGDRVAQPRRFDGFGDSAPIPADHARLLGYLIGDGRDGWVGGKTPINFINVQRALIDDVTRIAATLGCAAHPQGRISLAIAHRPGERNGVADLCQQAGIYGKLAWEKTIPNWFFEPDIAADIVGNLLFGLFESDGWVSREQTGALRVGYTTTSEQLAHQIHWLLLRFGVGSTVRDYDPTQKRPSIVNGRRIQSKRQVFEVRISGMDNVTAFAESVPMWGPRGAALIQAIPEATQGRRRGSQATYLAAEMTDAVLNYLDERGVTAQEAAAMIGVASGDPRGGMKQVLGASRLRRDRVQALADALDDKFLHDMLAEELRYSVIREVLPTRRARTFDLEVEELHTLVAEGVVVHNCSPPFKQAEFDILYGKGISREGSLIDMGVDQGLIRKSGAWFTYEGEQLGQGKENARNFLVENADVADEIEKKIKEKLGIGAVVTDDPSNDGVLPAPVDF
Arbovirus inh repeat: further read-out of Arbovirus inh, marked with its call; inhibition, %; measured here: 10K subset replicate screen; many hits read low in the repeat;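 first of two repeat runs on a subset; 0% = infected and 100% = uninfected wells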
Starred values were filed as active, the others as inactive; ? = inconclusive; . = not tested or not shown.

SMILES	YopH inh	Mtb H37Rv	Arbovirus inh	Mtb betalactam	RecA splice inh	others
CCSC1=C(C#N)C(CC(C)C)C2=C(CCCC2=O)N1 (centres undefined)	.	6%	.	3	-13
CNC(=O)CSCc1cnn(-c2ccccc2)c1-n1cccc1	-18	-4%	9	-3	1.6
O=C(Nc1cc(C(F)(F)F)ccc1-n1cncn1)C1CC1	.	.	.	-3	-1.6
CCOc1ccccc1NC(=O)CCc1nnc2ccc(N3CCC4(CC3)OCCO4)nn12	.	.	.	?	5.3
O=S(=O)(c1ccc(-c2csc(-c3cccnc3)n2)cc1)N1CCOCC1	.	4%	-7	5	0.5
CCN1CCN(CC(=O)Nc2ccc(C)cc2C)C(=O)C1=O	-18	-3%	1	-4	-0.4	Arbovirus inh repeat=2
COc1ccc(CCNC(=O)CSc2nc(C)nc3c2oc2ccccc23)cc1OC	-34	-3%	-4	-4	0.2
CCOC(=O)C1CCN(C(=O)CC2(CC(=O)O)CCCC2)CC1	.	.	.	0	2.5
CC(=O)C(Sc1ccc2nnc(-c3ccncc3)n2n1)C(C)=O	-45	1%	0	-4	-0.9
Cc1ccc(OCC(=O)N2CCN(c3ccc([N+](=O)[O-])c(N4CCOCC4)c3)CC2)cc1	-64	-4%	2	2	3.2
COc1ccccc1NC(=O)c1ccc(C(=O)c2ccccc2)o1	.	7%	4	-3	2.0
CCCCNC(=S)Nc1cccc(S(=O)(=O)NC2=NCCC2)c1	.	.	.	-18	-5.7
C=CCN(c1ccccc1)S(=O)(=O)c1cccc(C(=O)Nc2nnc(SCC)s2)c1	-21	-7%	2	-8	1.2
CC(=O)Nc1ccc(NC(=O)c2c(C)nn(-c3ccccc3)c2Cl)cc1C	.	-2%	-6	3	-0.7
Nc1ccc(C(=O)OCc2nc3cc4ccccc4cc3[nH]2)cc1	.	22%	1	-4	1.7
COc1ccccc1CCNC(=O)C(=O)NCC1OCCN1S(=O)(=O)c1ccc(OC)c(OC)c1 (centres undefined)	.	.	.	3	-7.6
O=C(NCCc1nc(-c2ccccc2)no1)c1ccccc1	.	-5%	.	-8	1.1
COc1ccc(S(=O)(=O)NCc2ccco2)c2ccccc12	-24	7%	7	-1	15
O=C(NCc1ccco1)C(=O)NCC1OCCN1S(=O)(=O)c1ccc(Br)cc1 (centres undefined)	.	.	9	-6	-0.3
CCOC(=O)C1CCCN(Cc2ccc(O)c(OC)c2)C1 (centres undefined)	1	-3%	7	-2	-5.4
CCN1CCCc2cc(CN(CCN3CCOCC3)C(=S)Nc3cccc(OC)c3)ccc21	.	3%	6	-3	4.0
COc1cccc(/C=C/C(=O)N2CCN(S(=O)(=O)c3ccccc3)CC2)c1OC	.	-8%	.	-1	1.4
O=C(Cn1cnc2c(nnn2Cc2ccc(F)cc2)c1=O)NC1CCCC1	-25	-5%	3	-12	-2.7
Cc1cc(N/N=C/c2cccc(Cl)c2)nc(-n2nc(C)cc2C)n1	.	?	.	76	1.1
Cc1cc(NC(=O)COC(=O)c2cccc(OCc3ccccc3)c2)no1	-49	5%	5	9	-2.1

Brought forward from above: 2 entries, followed by the next part.
SMILES	YopH inh	Mtb H37Rv	Arbovirus inh	Mtb betalactam	RecA splice inh	others
Cc1cc(N/N=C/c2cccc(Cl)c2)nc(-n2nc(C)cc2C)n1	.	?	.	76	1.1
Cc1cc(NC(=O)COC(=O)c2cccc(OCc3ccccc3)c2)no1	-49	5%	5	9	-2.1
Cc1ccc(C(=O)NCCSCc2ccc(Cl)cc2Cl)cc1[N+](=O)[O-]	-18	6%	-28	23	6.7
Cc1cccc(OCC(=O)Nc2ccc3c4c(cccc24)CC3)c1C	-14	3%	-19	12	-1.1
NS(=O)(=O)c1ccc(CCNC(=O)CSCc2ccccc2)cc1	.	5%	4	1	-4.6
Cn1c(SCC(=O)Nc2ccc3nc(SCC(=O)NC4CC4)sc3c2)nnc1-c1ccccc1	-28	-8%	2	28	-4.1
Cc1cc(C)c(OCC(=O)Nc2nc3ccccc3[nH]2)c(C)c1	.	10%	17	.	0.7
O=C(O)C1=C[C@H](c2coc3ccccc3c2=O)C[C@H](OCc2ccc(CO)cc2)O1	.	-10%	3	-4	-2.6
Cc1ccc([N+](=O)[O-])cc1NC(=S)NC(=O)c1cccs1	6	-1%	-14	0	-2.2
COc1cc(CN2CCCC(C)C2)ccc1OCc1ccccc1 (centres undefined)	.	.	.	-1	-1.0
CC(c1ccccc1F)n1cc(C(=O)NCc2ccncc2)nn1 (centres undefined)	-30	-6%	3	18	-0.1	Arbovirus inh repeat=-2
CC1=NN(c2ccc(C(=O)O)c(N)c2)C(=O)C1	.	-2%	4	-4	69*
O=C(CSc1ccc2ccccc2n1)Nc1ccc(N2CCOCC2)cc1	.	0%	-2	-4	1.5
Cc1cc(NC(=O)CCC(=O)N(Cc2ccccc2)C(C(=O)NC2CCCC2)c2ccc(C)o2)no1 (centres undefined)	.	.	.	-7	-2.5
CC(=O)Nc1ccc(NC(=O)c2cc(-c3cc(C)c(C)cc3O)n[nH]2)cc1	.	.	.	-1	-1.0
COc1cccc(NC(=O)CSc2nc(N)cc(N)n2)c1	-16	-2%	8	4	-2.3
CC(C)CN(CC(C)C)S(=O)(=O)N1CCC(C(=O)NCc2ccccn2)CC1	5	-8%	-8	-1	.
O=C(NNC1=NCCCCC1)Nc1cccc(Cl)c1	.	1%	4	.	-6.3
CC(=O)Nc1sc(N/N=C/c2ccccc2)nc1-c1ccc(C)cc1	.	2%	.	1	.
C=CCn1c(N)cc(=O)nc1SCC(=O)Nc1ccccc1C(N)=O	.	-8%	0	-1	1.7
CC(C)(C)NC(=O)/C=N/O	-34	-10%	-3	-1	-1.2
Cc1ccccc1NC(=O)CCC(=O)OCCCC(F)(F)C(F)(F)F	-20	-2%	4	2	2.9
CCOC(=O)c1c(NC(=O)C2CCCN(S(=O)(=O)c3ccc(C)cc3)C2)sc2c1CCCC2 (centres undefined)	-19	10%	2	4	2.2
CC1CCN(CC(=O)NNC(=O)c2cccc(Br)c2)CC1	.	.	.	-3	2.5
CCC1CCC/C1=N\NC(=O)c1ccoc1C (centres undefined)	.	.	.	-2	-0.4
O=C1COc2ccc(C(=O)COC(=O)COc3ccccc3[N+](=O)[O-])cc2N1	.	2%	.	-5	1.0
CC1(C)CC(=O)C(C=NCCN2CCNC2=O)=C(O)C1	-32	-2%	5	0	0.5

Later entries
SMILES	YopH inh	Mtb H37Rv	Arbovirus inh	Mtb betalactam	RecA splice inh	others
COc1c(NC(C)=O)c2ccccc2c2ccccc12	.	-3%	.	.	0.0
Cn1c(=NC(=O)C2CCN(S(=O)(=O)c3cccs3)CC2)sc2ccccc21	-32	-6%	-13	-3	4.3
OC(c1ccc(Cl)cc1Cl)C(Cc1cccnc1)n1cncn1 (centres undefined)	-22	-5%	6	3	5.7
O=C(Nc1cccnc1Cl)c1ccc(Cl)c([N+](=O)[O-])c1	-30	8%	-1	6	-1.3
CCOC(=O)c1ccc(COC(=O)CCc2nc(-c3ccccc3)c(-c3ccccc3)o2)cc1	8	3%	-4	97	-0.2
CN(C)C(CNC(=O)c1oc2ccccc2c1CSc1ncn[nH]1)c1ccco1 (centres undefined)	.	-6%	11	-18	-0.1
COc1ccc(/C=C2\CCc3ccccc3C2=O)c(OC)c1OC	.	-3%	-5	-4	2.9
O=C1c2ccc3c4c(ccc(c24)C(=O)N1c1cccc(O)c1)C(=O)N(c1cccc(O)c1)C3=O	.	-4%	.	8	1.5
CCOc1ccc(CCNC(=O)Cn2ncn3nc(-c4ccc(OC)cc4)cc3c2=O)cc1	.	.	.	6	-18
Cc1ccc(NC(=S)N(CCN2CCOCC2)Cc2ccccc2F)cc1	.	7%	18	8	0.4
CC1(C)CC(=O)C2=C(C1)Oc1ncn(CCCn3ccnc3)c(=N)c1C2c1ccccc1 (centres undefined)	-32	0%	-4	6	-1.6
Cc1nn(-c2ccccc2)c2c1C(c1cccnc1)N1C=C(S(=O)(=O)N3CCCCC3)C=CC1=N2 (centres undefined)	-32	15%	7	1	4.8
O=C(c1ccco1)N1CCN(S(=O)(=O)c2ccc(Cl)s2)CC1	-15	-6%	3	-4	.
O=C(/C=C/c1cn(CC(O)CN2CCOCC2)c2ccccc12)c1cccs1 (centres undefined)	.	4%	.	9	-2.6
COCCCn1c(C)cc(C(=O)COC(=O)CCc2nc3ccccc3c(=O)[nH]2)c1C	.	-6%	.	-5	-4.5
COc1ccc(/C=C2/SC(=O)N(CC(=O)NCCC(C)C)C2=O)cc1OC	.	-3%	5	-4	-22
COc1cc(C(=O)Nc2cc(C)ccn2)cc(OC)c1OC	16	-2%	-4	8	-1.2
O=C(CSc1ncccn1)NCc1ccccc1	-19	7%	3	-2	1.5
O=S1(=O)CCOC[C@H](CC2CCCCC2)N1Cc1cccc(Cl)c1	.	.	.	25	2.0
Cc1ccc(S(=O)(=O)CCC(=O)OCC(=O)N2CCN(S(=O)(=O)c3ccc(Cl)cc3)CC2)cc1	.	.	.	-2	-0.3
N=c1n(CCN2CCCCC2)c2ccccc2n1CC(O)c1ccc(Cl)c(Cl)c1 (centres undefined)	3	57%	-38	89	11
O=C(CN1C(=O)C2CC=CCC2C1=O)Nc1ccc(-c2nnc3n2CCCCC3)cc1 (centres undefined)	-2	-1%	-2	0	-5.1
CCOCC(=O)Nc1cc(Cl)ccc1C	.	-12%	1	-1	0.3
CC1CCC(NC(=O)C2c3ccccc3C(=O)N2CCCN2CCOCC2)CC1 (centres undefined)	-28	-4%	6	7	1.0
CC(C)(C)C(=O)Nc1ccc(Oc2ccc3c(c2)C(=O)N(c2ccc(O)cc2)C3=O)cc1	-24	-9%	-1	6	3.9

Three entries already listed, arranged by count of non-hydrogen atoms, rising:
SMILES	YopH inh	Mtb H37Rv	Arbovirus inh	Mtb betalactam	RecA splice inh	others
COc1ccc(/C=C2/SC(=O)N(CC(=O)NCCC(C)C)C2=O)cc1OC	.	-3%	5	-4	-22
O=C(/C=C/c1cn(CC(O)CN2CCOCC2)c2ccccc12)c1cccs1 (centres undefined)	.	4%	.	9	-2.6
O=C(CN1C(=O)C2CC=CCC2C1=O)Nc1ccc(-c2nnc3n2CCCCC3)cc1 (centres undefined)	-2	-1%	-2	0	-5.1

Following part.
SMILES	YopH inh	Mtb H37Rv	Arbovirus inh	Mtb betalactam	RecA splice inh	others
O=C(COc1ccccc1)Nc1ccc(S(=O)(=O)N2CCCC2)cc1	-15	4%	-2	0	0.9	Arbovirus inh repeat=5
COC(=O)C12CCC(C)(c3nc4ccccc4nc31)C2(C)C (centres undefined)	.	-2%	2	-6	-2.6
CCCc1nc2oc3c(NCC4CCCO4)ncnc3c2c2c1COC(C)(C)C2 (centres undefined)	-16	8%	-2	-2	0.9
Cc1n[nH]c(C)c1C(=O)CC1(O)C(=O)N(Cc2ccccc2)c2ccc(Br)cc21 (centres undefined)	8	1%	-8	-24	6.2
Cc1ccc(Sc2ncccc2COC(=O)NC(C)C)cc1	.	17%	12	0	-0.2
COc1ccccc1C(=O)N1N=C(c2ccc(NS(C)(=O)=O)cc2)CC1c1cccs1 (centres undefined)	.	.	.	-1	2.8
NC(=O)c1oc2ccc(Cl)cc2c1N	2	0%	6	1	-0.7
Cc1cc(C)c(NN=c2c(=O)c3ccccc3c2=O)c(C)c1	-54	.	1	-5	1.1
COc1ccc(C2C(C(=O)c3cccs3)=C(O)C(=O)N2c2cccc(C)n2)cc1OC (centres undefined)	.	4%	.	3	.

4 successive records out of the list so far:
SMILES	YopH inh	Mtb H37Rv	Arbovirus inh	Mtb betalactam	RecA splice inh	others
COc1ccccc1C(=O)N1N=C(c2ccc(NS(C)(=O)=O)cc2)CC1c1cccs1 (centres undefined)	.	.	.	-1	2.8
NC(=O)c1oc2ccc(Cl)cc2c1N	2	0%	6	1	-0.7
Cc1cc(C)c(NN=c2c(=O)c3ccccc3c2=O)c(C)c1	-54	.	1	-5	1.1
COc1ccc(C2C(C(=O)c3cccs3)=C(O)C(=O)N2c2cccc(C)n2)cc1OC (centres undefined)	.	4%	.	3	.

An excerpt; the hit share may differ from the screen's.
